# Compound activity deposited in PubChem by National Center for Advancing Translational Sciences (NCATS).
# ClpP mod – qHTS Assay for Activators of ClpP | purified B. subtilis ClpP, FRET peptide cleavage, 20 min | Potency, µM (titrated, usually from 57.5 µM), for the others: at the highest dose activity change, negative = active | 340,000 compounds, 1.9% hits; active = well fitted falling curve with a large enough effect; inconclusive = small, poorly fitted or top-dose-only effect; inactive = no such curve, though single readings can be large or run the other way; further: potency means the concentration at half of the fitted maximal effect; the source files actives as falling curves though it sought activators and does not explain the sign; nearly all actives have a fitted effect of over 65% in size; many hits overshoot -100%
# Target sequence (P80244 whole entry, looked up): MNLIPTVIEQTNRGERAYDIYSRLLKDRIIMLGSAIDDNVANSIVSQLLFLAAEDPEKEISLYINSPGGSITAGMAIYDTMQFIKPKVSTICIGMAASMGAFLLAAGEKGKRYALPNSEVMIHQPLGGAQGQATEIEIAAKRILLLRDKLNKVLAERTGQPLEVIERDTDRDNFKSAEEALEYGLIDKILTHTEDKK
#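 Purified B. subtilis ClpP, 10 microg/mL final in Tris/HCl pH8 with KCl, BSA, glycerol and Tween-20, cleaved an Abz/nitrotyrosine-quenched decapeptide. Fluorescence (ex 320, em 430) was read at 0 and 20 min at room temperature. Delta was normalized to 5.8 microM ADEP and DMSO/no-enzyme controls.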
# gsp ag – gsp mutant agonism. gsp mutant cells, cAMP HTRF, 30 min; control for the full effect not named in the record. Potency, µM (series often up to 76.9 µM), for inactives: top-dose activation (cAMP increase), usual class: activators. 340,000 compounds, 0.13% hits. AID 624287; active = well fitted activation curve with a large enough effect; inconclusive = small, poorly fitted or top-dose-only effect, or another doubt; inactive = no such curve, though single readings can be large or run the other way; cell line not stated here;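 further: phosphodiesterase inhibitor Ro 20-1724 added with compounds to block cAMP breakdown; potency means the concentration at half of the fitted maximal effect; nearly all actives have a fitted effect of over 60% in size; about a fifth of the inactives were tested at one dose only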
#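 Cells stably selected in G418 were plated at 2000/well, grown 16-24 hr, then given compounds in DMSO with the PDE inhibitor […] (300 uM solution added) for 30 min at 37C; cAMP was read by HTRF.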
# gsp antagonist – antagonists of gsp mutant (McCune-Albright syndrome); gsp-mutant cells, cAMP HTRF, 30 min; control for the full effect not named in the record; Potency, µM (doses to about 76.9 µM), for the others: top-dose activity change, negative = inhibition, most hits filed as inhibitors; 340,000 compounds, 0.4% hits; AID 624288; active = falling curve of any shape with a large fitted effect; inconclusive = falling curve, mostly with a smaller effect; inactive = flat or rising curve; cell line not stated here;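 further: intracellular cAMP measured with PDE inhibitor Ro 20-1724 present during compound exposure; potency means the concentration at half of the fitted maximal effect; on the % scale 0 is the no-effect control and ±100 the full control effect; nearly all actives have a fitted effect of over 65% in size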
#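 G418-selected cells were plated in DMEM/10% FBS for 16-24 h at 37C, then treated with compounds plus the PDE inhibitor […] (300 uM solution added) for 30 min at 37C. Intracellular cAMP was measured by HTRF after 30 min lysis at room temperature.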
# TRPML1 ag – agonists of human TRPML1 channel. Q9GZU1. TRPML1-expressing cells, Ca2+ dye fluorescence, FDSS; host cell line not named in the record; reference of the full effect not given here. activation, % (no concentration beside the values). 410,000 compounds, 0.12% hits. AID 624414; in the data active = activation above about 50%; inconclusive = about 30% to 50%; inactive = below about 30%; further: 0% is about no effect; the text of the record puts the active cut at 80%
# Target sequence (Q9GZU1 whole entry, looked up): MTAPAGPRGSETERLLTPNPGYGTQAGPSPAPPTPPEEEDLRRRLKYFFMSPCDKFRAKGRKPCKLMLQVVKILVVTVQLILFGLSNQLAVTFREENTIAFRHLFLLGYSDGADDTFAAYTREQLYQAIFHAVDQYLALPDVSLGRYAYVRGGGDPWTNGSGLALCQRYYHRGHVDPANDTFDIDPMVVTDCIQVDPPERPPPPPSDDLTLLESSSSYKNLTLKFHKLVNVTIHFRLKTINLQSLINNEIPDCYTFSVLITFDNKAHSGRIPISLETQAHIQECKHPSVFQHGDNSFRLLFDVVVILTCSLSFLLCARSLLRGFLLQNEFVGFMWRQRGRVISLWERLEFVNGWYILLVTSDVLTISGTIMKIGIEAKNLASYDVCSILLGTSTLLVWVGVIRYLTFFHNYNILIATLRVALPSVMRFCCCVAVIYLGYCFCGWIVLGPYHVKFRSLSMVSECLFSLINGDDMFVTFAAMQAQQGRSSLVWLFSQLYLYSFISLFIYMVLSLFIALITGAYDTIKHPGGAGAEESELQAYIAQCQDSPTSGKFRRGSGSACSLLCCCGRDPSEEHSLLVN
#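 Kinetic FDSS Ca2+ read in Tet-induced TRPML1-DL cells (ABD Ca8 dye plus quencher, 45-90 min RT loading): baseline, then compound, then 110 s agonist window; EC80 agonist 54-4 at 4uM final added afterwards for a 110 s antagonist window.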
# TRPML1 inh – human mucolipin-1 channel inhibition; AID 624415; TRPML1-inducible cells, Ca2+ dye fluorescence, FDSS; active compounds read low; inhibition of EC80 agonist-evoked calcium signal; activity change, negative = inhibition, % (test concentration not listed); 390,000 compounds, 0.02% hits; in the data active means activity change below about -50%; inconclusive means about -30% to -50%; inactive means above about -30%;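 further: stimulus is agonist 54-4 at its EC80 concentration; on the % scale 0 is the no-effect control and ±100 the full control effect; compound concentration not given in the record; the text of the record puts the active cut at -80%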
#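 Tet-induced TRPML1-DL cells loaded with Ca8 no-wash calcium dye were read kinetically on FDSS. Compound addition was followed by EC80 agonist 54-4 (4 uM final); inhibition was read over 110 s.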
# Menin-MLL FL inh – menin-MLL binding inhibition, fluorescein peptide; Fluorescence polarization, fluorescein-MLL peptide displacement from menin; FP activity change, % at 61.4 µM; 290,000 tested, under 10 active; AID 1766; inconclusive = falling polarisation curve, or a change in total fluorescence; inactive = total fluorescence flat and polarisation flat or rising; no compound was filed as active; the % refers to the polarisation; negative = inhibition;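 further: % of control where 0% means no effect; inhibitors lower the polarisation; unlabelled MLL peptide was the positive control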
# Active calls of the source: *; ? = inconclusive; . = no result given; [ ] = another dose, or the depositor's remark.
SMILES,ClpP mod,gsp ag,gsp antagonist,TRPML1 ag,TRPML1 inh,Menin-MLL FL inh
O=C(Nc1ccc2c(c1)C(=O)OC2)c1ccc(C(F)(F)F)cc1,.,-7.4%[15.4 µM],21.9%,0.3,-9.9,3.7
O=C(c1ccc(-c2ccccc2)cc1)N1CCN(c2nc3ccccc3o2)CC1,-5.6%,-39.6%[inhibitor],6.6%,-0.2,-1.5,-1.2
O=C(CCCCn1c(=O)[nH]c2ccsc2c1=O)N1CCN(c2cccc(Cl)c2)CC1,-0.2%,.,.,0.1,9.6,.
CCC(=O)Nc1nnc(SCC(=O)NCc2ccc3c(c2)OCO3)s1,-2.3%,-39.5%[inhibitor],0.8%,0.9,7.4,.
CN(C)/N=C/c1ccc(P(c2ccc(/C=N/N(C)C)o2)c2ccc(/C=N/N(C)C)o2)o1,.,5.7%[15.4 µM],-16.8%,-0.7,18.2,-2.2
C=CCNc1nc(C(=O)OCC(=O)Nc2cc(S(C)(=O)=O)ccc2Cl)cs1,-10.0%,4.8%[15.4 µM],-6.6%,-0.5,-0.6,.
Oc1cc2c(cc1CN1CCN(c3cccc(C(F)(F)F)c3)CC1)CCC2,-13.0%,-22.7%,6.0%,2.7,-2.4,0.7
CC(Sc1ccccc1)C(=O)N1CCN(S(=O)(=O)c2ccccc2C(F)(F)F)CC1 (configuration not stated),1.4%,7.2%,3.4%,0.8,22.7,.
CCOC(=O)N1CCN(S(=O)(=O)c2ccc(OCC(=O)OC)c(C)c2)CC1,0.9%,?,-6.4%,-0.2,-6.6,1.2
COc1ccc(Cc2nnc(SCC(=O)Nc3cc(Cl)ccc3C)[nH]c2=O)cc1,-0.7%,-0.8%,-4.9%,0.7,25.0,.
Cc1nnsc1S(=O)c1ccccc1Cl (configuration not stated),.,19.3%,-4.0%,-0.3,1.3,-1.5
COc1ccccc1Cc1nc2ccccc2nc1SCC(=O)Nc1ccc2c(c1)OCO2,2.1%,.,.,2.6,12.8,.
O=C1c2ccccc2S(=O)(=O)N1Cc1nnc(-c2ccccc2Br)o1,-1.6%,0.7%,-5.0%,0.9,4.5,5.4
c1ccc2c(c1)CCCn1nnnc1-2,1.2%,-3.4%,19.4%,-0.5,-1.0,-1.2
O=C(COC(=O)/C=C/c1ccccc1)NCCc1ccc(F)cc1,.,-60.2%[inhibitor],6.0%,-0.2,-7.7,.

# The closing three records of the section before open the next one:
SMILES,ClpP mod,gsp ag,gsp antagonist,TRPML1 ag,TRPML1 inh,Menin-MLL FL inh
O=C1c2ccccc2S(=O)(=O)N1Cc1nnc(-c2ccccc2Br)o1,-1.6%,0.7%,-5.0%,0.9,4.5,5.4
c1ccc2c(c1)CCCn1nnnc1-2,1.2%,-3.4%,19.4%,-0.5,-1.0,-1.2
O=C(COC(=O)/C=C/c1ccccc1)NCCc1ccc(F)cc1,.,-60.2%[inhibitor],6.0%,-0.2,-7.7,.
O=C(Nc1cccc(F)c1)c1ccc2c(c1)N(Cc1ccccc1)C(=O)c1ccccc1S2(=O)=O,1.3%,.,.,2.0,-5.0,.
CC(C)c1nnc(NC(=O)C2CCCN2C(=O)Nc2ccccc2F)s1 (configuration not stated),-0.4%,-34.4%[inhibitor],-13.8%,0.6,-1.8,-1.6
CCOc1cc(NC(=O)c2cccs2)c(OCC)cc1NC(=O)c1ccco1,-1.0%,0.0%,-3.4%,1.2,4.4,-3.9
COc1cc(C(CCN2CCCCC2)c2c(OC)cc(OC)c3c2OC(=O)CC3c2ccc(N(C)C)cc2)cc(OC)c1OC (configuration not stated),.,.,.,0.8,-13.7,2.7
COC(=O)C1CCN(C(=O)COC(=O)c2cc(S(=O)(=O)N3CCOCC3)ccc2C)CC1,1.0%,-8.6%[15.4 µM],3.5%,0.6,7.9,.
O=C(Nc1ccc(Cl)c(Cl)c1)C1C2C=CC3(O2)C1C(=O)N(CCN1CCCCC1)C3C(=O)NC1CCCCC1 (configuration not stated),.,-9.2%,-14.2%,-0.4,-7.6,-4.1
Cc1ccc2nc(-c3ccc(NC(=O)CN4CCN(C(=O)c5ccco5)CC4)cc3)sc2c1,?,18.6%,3.4%,-0.1,-2.6,3.6
CC1Cc2ccccc2N1C(=O)c1ccnc(C(C)(C)C)c1 (configuration not stated),0.8%,16.5%,-16.9%,-0.7,-4.2,3.2
O=C(Nc1ccc(O)cc1)c1cc2ccccc2c(=O)s1,.,6.8%[15.4 µM],.,0.1,-7.6,0.7
Cc1ccc(O)c(NC(=O)c2cc(-c3ccccc3)on2)c1,-0.7%,-7.2%[15.4 µM],-3.7%,-0.2,-7.9,5.4
CCCC(=O)Nc1nnc(SCC(=O)Nc2ccc3c(c2)OCO3)s1,0.9%,3.2%,0.3%,0.3,-21.0,-3.6
Cc1cc(NC(=O)CC2Oc3ccccc3NC2=O)ccc1Br (configuration not stated),0.6%,13.2%[15.4 µM],7.3%,-0.9,-18.0,-3.0
O=C1CCc2cc(NS(=O)(=O)c3ccc(Br)cc3)cc3c2N1CC3,1.1%,6.2%,10.2%,1.1,13.4,.
Cc1c(C(=O)Nc2ccccn2)oc2ccc(Br)cc12,-1.7%,?,-17.4%,0.3,9.7,.
CC1=C(C(=O)Nc2ccc(C)cc2C)C(c2ccc([N+](=O)[O-])cc2)n2ncnc2N1 (configuration not stated),0.0%,?,3.9%,0.2,-3.5,7.7
Cc1oc2ccc(O)c(CN3CCOCC3)c2c1C(C)O (configuration not stated),-0.6%,-13.1%,14.1%,-0.4,0.2,2.8
C[C@@H]1CN([C@@H](C)CO)C(=O)CCCn2nncc2CO[C@H]1CN(C)Cc1ccncc1,-2.6%,?,.,0.8,-6.6,.
CCCCn1c(=N)n(CC(O)c2ccccc2)c2ccccc21 (configuration not stated),.,0.0%[15.4 µM],6.3%,0.2,-4.8,-17.3
COc1ccccc1NC(=O)C(=O)NCC(c1cccnc1)N1CCc2ccccc2C1 (configuration not stated),0.2%,.,.,-0.8,2.5,.
Brc1c(-c2ccc3c(c2)OCO3)nc2ncccn12,.,?,-0.9%,-0.5,18.2,0.1
COc1ccc(-c2c(=O)n(OCc3nc4ccccc4[nH]3)c3ccccc3[n+]2[O-])cc1,.,-1.4%,-8.9%,0.0,7.9,3.9
O=C(Nc1cccc(O)c1)c1ccccc1[N+](=O)[O-],-1.3%,11.4%,5.6%,-0.9,2.9,-0.9
Fc1ccc(Nc2nc(-c3cccc(Cl)c3)c3c(n2)-c2ccccc2OC3)cc1,-5.5%,.,.,-0.3,10.8,.
O=C(CNC(=O)c1ccc(Cl)cc1Cl)OCCCn1c(=O)[nH]c2ccccc21,-1.4%,-0.6%,2.3%,0.8,-13.9,.
CN(Cc1ccccc1)c1nnc(NC(=O)Nc2cccc(Br)c2)s1,1.3%,.,.,-0.2,-0.5,.
Cc1ccsc1C(=O)NCCc1ccc(S(N)(=O)=O)cc1,.,2.8%,-4.3%,-0.1,-10.1,-5.1
COc1cccc(CNC(=O)CCC2CCCN(Cc3ccc4c(c3)CCO4)C2)c1 (configuration not stated),1.8%,-2.7%,1.4%,0.0,-2.9,-3.0
COc1ccc(CCNC(=O)CCn2c(=O)oc3ccccc32)cc1OC,-0.5%,25.2%,8.2%,0.2,-0.9,0.8
C[C@H](CO)N1C[C@H](C)[C@@H](CN(C)S(=O)(=O)c2ccccc2)OCc2cnnn2CCCC1=O,2.3%,-65.0%[inhibitor],.,-0.9,0.6,.
CCN(CC)C(=O)[C@H]1C[C@H](CC(=O)NCCCn2ccnc2)C(=O)N2CCc3c([nH]c4ccc(Cl)cc34)[C@]12C,0.8%,.,5.2%,-0.6,8.4,.
CCN(C(=O)c1ccccc1)c1ccc([N+](=O)[O-])cc1,-1.5%,-15.0%,5.5%,1.1,-17.0,1.5
Cc1ccccc1NC(=O)CN(C)S(=O)(=O)c1ccc(-c2ccc(=O)[nH]n2)s1,-7.1%,-46.0%[inhibitor],9.2%,2.7,-3.7,.
O=C(NCc1ccccn1)C(=O)Nc1nc(-c2ccccc2)cs1,.,24.3%,14.9%,1.0,9.5,-0.7
CC(=O)N1CCc2cc(S(=O)(=O)NC(CC(C)C)C(=O)N3CCc4ccccc4C3)ccc21 (configuration not stated),1.4%,-12.8%,0.9%,-0.5,-0.5,2.7
Cc1c(C(=O)N2CCCCC2)oc2ccc(S(=O)(=O)N3CC(C)CC(C)C3)cc12 (configuration not stated),-18.7%,-61.5%[inhibitor],-15.6%[15.4 µM],0.6,35.1,1.4
CC(=O)Nc1ccc(S(=O)(=O)NCCNS(=O)(=O)c2ccc(NC(C)=O)cc2)cc1,-0.2%,-5.8%,12.2%,0.7,-14.3,-3.5
O=C(NCc1ccco1)c1c2c(nc3ccccc13)CCC2,1.2%,-6.8%,4.1%,-1.1,14.9,-3.4
CCCCNC(=O)c1cc(S(=O)(=O)N2CCCCC2)oc1C,-1.1%,18.5%,-3.8%,0.3,15.0,.
O=C(CN1CCc2ccccc2C1)c1cccs1,-4.4%,-22.8%,1.1%,0.8,19.0,-2.8
CCOC(=O)c1c(C)oc2nc(C)nc(Nc3cccc(OC)c3)c12,2.2%,.,.,-0.2,9.5,.
COc1ccc(NC(=O)C2CCCO2)cc1Cl (configuration not stated),1.4%,-43.1%[inhibitor],9.2%,0.0,2.3,5.0
N#Cc1ccc(C(=O)Nc2cc(S(=O)(=O)N3CCCC3)ccc2OCC(F)(F)F)cc1,7.2%,11.7%,-1.0%,1.4,17.8,-0.4
COc1cc(OC)cc(C(=O)Nc2cccc(-c3cn4ccsc4n3)c2)c1,-6.8%,.,.,2.9,-8.9,.
Cc1ccc(S(=O)(=O)c2nc(-c3ccccc3)oc2N2CCC(C(N)=O)CC2)cc1,-0.4%,?,-6.1%,0.7,19.1,2.6
OCC1(CO)CC2(C1)CC(CO)(CO)C2,0.6%,20.1%[15.4 µM],-6.0%,1.0,2.1,.
O=C1C2C3C=CC(CC3)C2C(=O)N1c1ccc(Cl)cc1 (configuration not stated),-2.1%,-30.5%[inhibitor],5.5%,-0.7,3.1,-0.5
CC(=O)C(C)n1c(CN2CCN(C(=O)c3ccco3)CC2)nc2c1c(=O)n(C)c(=O)n2C (configuration not stated),-1.2%,?,0.9%,-0.6,2.8,-6.7
OCc1ccnc(Cl)c1,-5.4%,-9.5%,13.1%,1.0,47.3,2.8
O=C(NCc1ccc2c(c1)OCO2)c1cnc2n(c1=O)CCS2,-2.8%,?,10.5%,-0.3,27.5,-0.6

# This is a random part of the collection; overall some 2.1% were active at least once.
